# Beta2AR agonist = activates human beta-2 adrenergic receptor causing internalization | P07550 | Am2.2-beta2AR cells, FAP receptor internalization, flow cytometry; reference of the scale not given here | response, % (test concentration not listed) | hit rate 0.43% among 340,000 | AID 504454;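 active = response above a set limit, near 3 SD of response in nonfluorescent compounds, cut at about 42% in these data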;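 also: stock transfer was 100 nL into about 11 µL; a reference agonist was the positive control; negative values mostly stem from fluorescent compounds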
# Target sequence (P07550 whole entry, looked up): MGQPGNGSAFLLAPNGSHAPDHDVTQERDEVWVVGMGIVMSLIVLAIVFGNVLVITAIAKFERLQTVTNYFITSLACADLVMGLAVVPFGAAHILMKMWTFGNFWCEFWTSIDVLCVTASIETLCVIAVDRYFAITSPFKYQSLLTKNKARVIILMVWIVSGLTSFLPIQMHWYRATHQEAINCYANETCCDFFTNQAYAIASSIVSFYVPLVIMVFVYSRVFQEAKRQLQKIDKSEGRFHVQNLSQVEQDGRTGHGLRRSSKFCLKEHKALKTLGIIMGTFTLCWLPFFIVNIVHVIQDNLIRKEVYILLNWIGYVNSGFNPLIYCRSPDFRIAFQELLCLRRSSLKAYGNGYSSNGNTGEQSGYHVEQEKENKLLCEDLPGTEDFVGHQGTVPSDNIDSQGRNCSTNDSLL
# Ecoli growth = inhibitors of Escherichia coli growth. OD600, 23 h; stronger effect = lower value. OD600 absorbance (test concentration not listed). hit rate 0.21% among 330,000;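 active = OD600 absorbance below the run mean of sample wells minus 3.6 SD, in any replicate, cut at about 0.56 in these data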;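 also: stock transfer was 300 nL into about 60 µL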
# HNF4A DNA FP = change in binding of human HNF4 alpha to DNA | HNF4a-FITC DNA binding, fluorescence polarization, 1 h | hit rate 0.3% among 360,000 | activity change, % at 10 µM | P41235; in the data active = activity change above about 30%, passing the limit was not always enough;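 also: controls were the assay level and a saturating level of protein; the project sought stronger binding though the title names inhibitors; some compounds called inactive have numbers as strong as hits; positive values seem to mean higher polarization but the record does not say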
# Target sequence (P41235 whole entry, looked up): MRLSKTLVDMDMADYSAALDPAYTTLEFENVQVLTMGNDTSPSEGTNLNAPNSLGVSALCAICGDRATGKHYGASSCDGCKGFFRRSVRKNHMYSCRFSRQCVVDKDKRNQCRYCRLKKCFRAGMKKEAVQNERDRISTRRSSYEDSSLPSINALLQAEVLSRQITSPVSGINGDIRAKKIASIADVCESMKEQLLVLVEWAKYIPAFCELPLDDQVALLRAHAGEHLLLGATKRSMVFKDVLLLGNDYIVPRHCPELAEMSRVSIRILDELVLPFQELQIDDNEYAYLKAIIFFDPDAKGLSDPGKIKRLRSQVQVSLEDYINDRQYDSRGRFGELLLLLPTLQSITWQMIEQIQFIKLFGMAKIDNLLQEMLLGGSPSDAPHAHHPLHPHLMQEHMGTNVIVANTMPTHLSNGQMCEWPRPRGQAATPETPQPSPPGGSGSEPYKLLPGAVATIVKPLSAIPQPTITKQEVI
# UCH37 inh = inhibitors of human deubiquitinating enzyme UCH37; purified proteasome/UCH37, Ub-AMC cleavage fluorescence; inhibition, % (concentration not given with the values); hit rate 0.33% among 330,000; AID 588478;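 active = mean of two replicates above 20%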;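 also: 0% = compound-free wells with enzyme and 100% = wells lacking proteasome; stock transfer was 100 nL into about 20 µL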
#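 Reagent: Ub-AMC substrate; assay system: Proteasome-associated human UCH37 deubiquitinase; controls: no-proteasome and no-compound wells; read-out: % inhibition of Ub-AMC cleavage fluorescence; timing: 30 min preincubation with enzyme, 25 min cleavage at room temperature; signal: AMC fluorescence from Ub-AMC cleavage, excitation 355 nm, emission 460 nm; buffer or medium: Tris-HCl pH 7.4 plus ovalbumin, ATP-MgCl2, DTT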
# FGF22 binding = shifts melting point of recombinant human FGF22. Q9HCT0. hit rate 1.5% among 340,000. calls only at 9.99 µM. recombinant FGF22 thermal shift, SYPRO orange fluorescence; percent of sucrose octasulfate shift, DMSO zero;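 active = melting point raised past a set limit in the mean and every replicate; inconclusive = no clear call; three in four hits are not shown here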
# Target sequence (Q9HCT0 whole entry, looked up): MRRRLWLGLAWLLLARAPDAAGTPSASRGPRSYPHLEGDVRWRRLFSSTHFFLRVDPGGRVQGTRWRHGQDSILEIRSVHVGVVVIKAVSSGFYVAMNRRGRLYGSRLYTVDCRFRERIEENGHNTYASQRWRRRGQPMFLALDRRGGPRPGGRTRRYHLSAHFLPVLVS
# ALR H2O2 inh = human ALR oxidase inhibition via reduced H2O2; hit rate 3.8% among 290,000; purified ALR, DTT oxidation, H2O2 HRP-luminol luminescence; inhibition, % (concentration not given with the values);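 active = mean and each replicate at 75% or more; inconclusive = only one of the two met; inactive = neither met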;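 also: stock transfer was 7.5 nL into about 7.5 µL; 0% = neutral wells and 100% = wells with inactivated enzyme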
# LANA-H2B inh = blocks KSHV LANA binding to histone H2A/H2B; inhibition, % (concentration not given with the values); hit rate 0.6% among 320,000; AID 2629; cell-free LANA-H2A/H2B peptide, fluorescence polarization; Q9QR71; in the data active = inhibition mostly above about 10%, no sharp cut-off; inactive = mostly below about 6.7%;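 also: stock transfer was 7.5 nL into about 10 µL; 0% = median of vehicle wells and 100% = median of positive control wells; one replicate is shown; the record names a cut of 25% in any replicate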
# Numbers without * were called inactive; i = inactive; u = inconclusive; x = no result given. A portion of the library, so the mix of outcomes need not match the whole.
Compound	Beta2AR agonist	Ecoli growth	HNF4A DNA FP	UCH37 inh	FGF22 binding	ALR H2O2 inh	LANA-H2B inh
COCC(=O)NC1CCN(C(=O)NCc2ccccc2)CC1	-1	0.67	1.8	-1.8	x	-22	-3.1
CCCN(CCC)C(=O)Cn1ccc(=N)c2ccccc21	-5	0.76	0.2	3.5	x	0	4.1
CCOc1ccc(NC(=O)COC(=O)CC2CC3CCC2C3)cc1 (centres undefined)	3	0.71	-1.3	1.3	i	1	-3.3
CCN(CC)CCN1C(=O)C(=O)/C(=C(/O)c2ccc(Cl)cc2)C1c1ccncc1 (centres undefined)	7	0.68	-1.1	17	i	x	x
Cc1n(CC(=O)c2ccc(F)cc2)c2ccccc2[n+]1C	-4	0.66	1.9	0.6	i	-5	-3.4
CCOC(=O)C1CCN(C(=O)COC(=O)/C=C/c2ccccc2)CC1	7	0.66	-5.7	1.0	i	x	-0.9
C=CCn1cc(Cl)cc(C(=O)Nc2ccccc2)c1=O	-24	0.68	-3.2	6.0	i	x	8.5
COc1ccc(C(=O)OCCCN(C)C)cc1OC	2	0.68	-3.7	1.2	x	-6	-7.5
Cc1ccc(C(=O)COC(=O)COc2ccccc2O)cc1C	2	0.71	-1.1	2.2	i	35	-1.1
C/C(=N\NC(=O)c1ccccc1[N+](=O)[O-])c1ccc(Br)s1	10	x	1.6	x	i	0	-20
Cc1nnc(NC(=O)Oc2ccccc2)s1	13	0.69	-4.1	0.5	x	1	3.2
CCOn1c(=O)c(-c2ccc(Cl)cc2)[n+]([O-])c2ccccc21	-1	0.68	-1.9	-4.7	x	5	-2.6
C=Cc1ccc(CN2CCCN(Cc3ccc(F)cc3)S2(=O)=O)cc1	8	0.67	-2.8	4.8	i	-3	-3.1
O=C(CSCc1c(Cl)cccc1Cl)Nc1ccccc1C(=O)N1CCOCC1	-1	0.67	-0.2	0.2	x	0	-3.0
O=C(CSc1nnc(CN2CCOCC2)n1-c1ccc(Cl)cc1)Nc1cc(Cl)ccc1O	3	0.75	2.2	4.5	x	27	2.4
CCN(CC)c1ccc(C=Nc2cc(C)cc(C)c2)c(O)c1	6	0.69	3.7	1.8	i	-5	-0.8
COC(CNS(=O)(=O)c1ccc(Cl)cc1)c1ccccc1 (centres undefined)	-22	0.66	-2.0	1.1	i	-6	2.0
Cc1ccccc1NS(=O)(=O)c1ccc2c(c1)NC(=O)CO2	6	0.66	1.7	3.0	i	1	-3.0
Cc1sc2ncnc(N3CCC(C(=O)Nc4nnc(CC(C)C)s4)CC3)c2c1C	0	0.66	0.0	2.3	i	-21	4.8
CCC(=O)N1CCc2cc(S(=O)(=O)CCC(=O)Nc3ccc(F)c(F)c3)ccc21	-16	0.73	-3.5	1.1	x	98*	1.1
Cc1nnc(NC(=O)Cc2cccs2)s1	-6	0.7	-5.2	1.9	x	-7	5.2
Cc1cccc(NC(=O)COC(=O)c2ccccn2)c1	-2	0.65	1.0	4.0	i	-1	0.1
Cc1cc(C)nc(NC(=O)/C=C/c2ccc3c(c2)OCO3)c1	x	x	-2.0	-9.8	x	-1	3.0
O=C(c1cccc(S(=O)(=O)N2CCOCC2)c1)N(Cc1nnc(-c2ccccc2Cl)o1)C1CC1	-4	0.63	-0.5	0.4	i	5	8.0
CCCC(=O)NC(=S)Nc1c(C)cc(Br)cc1C	-7	0.71	1.6	1.6	x	-2	8.2
Cc1cccc(C(=O)Nc2nnc(S(=O)(=O)N3CCC(C)CC3)s2)c1	5	0.67	1.3	2.1	i	5	3.0
O=[N+]([O-])c1ccc(-c2nnc(-c3ccccc3)c(N3CCOCC3)n2)cc1	-8	0.67	1.7	4.8	x	x	-2.2
S=C(NCc1ccccc1)NNc1nc2ccccc2[nH]1	3	0.68	-2.1	3.8	i	u	-0.7
COc1ccccc1OCCNc1cc(N2CCCCC2)ccc1[N+](=O)[O-]	-1	0.67	-0.7	6.6	i	-9	1.6
Cc1cc(N2CCC(C(=O)Nc3ccc(F)cc3)CC2)nc(-c2ccccc2)n1	1	0.65	1.9	2.4	x	-5	2.4
CC1CC(C)CN(S(=O)(=O)c2ccc(C(=O)N3CC(C)OC(C)C3)cc2)C1 (centres undefined)	-4	0.71	3.6	-0.2	i	1	-0.9
O=C(CSc1ccccc1)Nc1cccc(S(=O)(=O)N2CCCCC2)c1	-6	0.7	-2.2	1.3	i	x	-0.5
CC(C)N(Cc1ccccc1)C(=O)COC(=O)c1ccc(S(=O)(=O)N2CCOCC2)cc1	-3	0.68	2.0	1.4	i	-9	6.4
O=C1C=C(NNC(=O)c2cccnc2)CC(c2ccco2)C1 (centres undefined)	-4	0.7	-6.1	10	i	x	-0.1
COc1ccc(S(=O)(=O)N(CC(=O)N/N=C/c2ccccc2C(=O)O)c2ccccc2OC)cc1	-2	x	2.8	x	i	-4	7.2
CC(C)(C)OC1NS(=O)(=O)OCC1NCOC(Cl)(Cl)Cl (centres undefined)	16	x	2.6	0.3	i	11	-7.6
CCN(Cc1ccccc1)C(=O)CN1C(=S)NC(C)(C)CC1C (centres undefined)	-8	0.73	-3.0	-12	i	3	-3.5
COCCNC(=O)c1ccc(Cl)c(Cl)c1	5	0.62	1.4	1.0	i	-5	2.4
C=CCn1c(SCC(=O)Nc2cccc3ccccc23)nnc1-c1cnccn1	4	0.69	-3.5	0.4	x	x	-0.6
Cc1ccc(C2C(C(=O)c3cc4ccccc4o3)=C(O)C(=O)N2CCN2CCOCC2)cc1 (centres undefined)	21	0.72	0.2	9.6	i	70	-2.2
CC(=O)N/C(=C/c1ccc2c(c1)OCO2)C(=O)NCC(=O)O	9	0.65	0.2	3.8	x	3	-0.9
CN(C)c1cccc2c1c(NC(=O)Nc1ccc(F)cc1F)nn2C	4	0.69	-3.1	-0.6	i	0	-2.8
CCOc1ccc(-n2c(Cc3cc(=O)[nH]c(=O)[nH]3)nnc2SC(C)C(=O)OC)cc1 (centres undefined)	-12	0.73	1.8	3.7	i	93*	-1.6
CCN(CC)S(=O)(=O)c1ccc(NS(=O)(=O)c2ccc(O)c([N+](=O)[O-])c2)cc1	0	0.63	-0.7	2.5	x	4	-2.5
CCc1ccc(CN2CCC(n3nccc3NC(=O)c3ccc4c(c3)OCO4)CC2)cc1	5	0.72	2.1	2.3	i	-3	-3.7
Nc1cc(-c2ccccc2)nn1Cc1ccccc1	4	0.72	-1.2	2.1	i	7	-2.5
O=C(NCCS(=O)(=O)NCc1ccc(Cl)cc1)c1ccccc1	2	0.69	-1.2	4.1	i	-4	-1.0
COc1cc(OC)cc(C(=O)N[C@H](C(=O)Nc2ccc(F)cc2F)C(C)C)c1	-4	0.63	-1.1	0.4	i	x	-0.6
O=C1C[C@@H]2c3c(cccc3CN1Cc1ccccc1Cl)C[C@@H](O)[C@H]2O	-12	x	0.5	4.9	i	x	x
Cc1ccc(S(=O)(=O)Nc2ccc(C(=O)NCc3ccccn3)cc2)cc1	-1	0.69	-2.6	-1.7	i	-1	-1.9

# Following part.
Compound	Beta2AR agonist	Ecoli growth	HNF4A DNA FP	UCH37 inh	FGF22 binding	ALR H2O2 inh	LANA-H2B inh
CCOC(=O)CSC(C)C(=O)Nc1nnc(C(C)C)s1 (centres undefined)	9	0.72	-0.8	2.8	i	-3	4.4
Cc1ccc(NC(=S)N2CCCC2)cc1C	0	0.63	-1.0	2.1	i	u	-3.3
Cc1ccc(C)c(NC(=S)NNC(=O)c2csc(C(C)C)c2)c1	1	0.73	4.3	1.5	x	19	-0.9
CC(C)(C)c1ccc(C(=O)CCC(=O)NCc2ccccc2)cc1	0	0.67	7.0	-2.2	i	-8	1.8
O=C(Nc1cccc(C(=O)N2CCN(Cc3ccccc3)CC2)c1)c1ccccc1	-2	0.71	-1.2	7.6	x	24	2.0
CSCc1c(C(=O)NC2CCCc3ccccc32)oc2ccccc12 (centres undefined)	-4	0.8	-1.0	-0.6	x	-4	6.9
COc1ccc(NC(=O)CN2C(=O)CSc3ncccc32)cc1	5	0.66	-1.2	5.1	i	-10	-6.0
NC(=O)c1cc2n(n1)C(C(F)(F)F)CC(c1ccco1)N2 (centres undefined)	19	0.72	2.8	0.6	x	-17	5.3
CC(NC(C)c1ccccc1Cl)C(=O)Nc1cccc(S(=O)(=O)N2CCCCC2)c1 (centres undefined)	1	0.7	-1.0	2.5	i	-13	4.8
COc1ccc2cc(C(=O)NCc3ccco3)c(=Nc3ccc(C(=O)O)cc3)oc2c1	5	0.71	-4.1	-11	x	0	8.1
COc1ccc(S(=O)(=O)Nc2cccc(N(C)S(C)(=O)=O)c2)cc1Br	7	0.72	0.1	2.2	x	6	2.2
O=C(Cc1ccc([N+](=O)[O-])cc1)N/N=C/c1cccs1	-8	x	1.1	x	i	-17	-0.3
CC(C)(C)c1ccccc1OCC(O)CN1CCN(c2ccccn2)CC1 (centres undefined)	-11	0.63	3.1	-0.6	i	-10	-4.5
CCCNC(=O)c1ccc2c(c1)C1C3CCC(C3)C1C(c1ccccc1)N2 (centres undefined)	-13	0.69	0.5	4.7	x	1	-2.2
CN(c1ccc(C(=O)Nc2nccs2)cc1)S(=O)(=O)c1ccccc1	-6	0.7	0.5	1.7	x	-9	7.1
CC(C)N=c1scc(-c2cccs2)n1/N=C/c1ccc(O)c(O)c1O	10	x	-4.4	x	x	88*	4.9
Cc1cccc(OCC(O)Cn2c(N3CCCCC3)nc3c2c(=O)[nH]c(=O)n3C)c1 (centres undefined)	8	0.66	-2.5	2.0	i	-2	6.3
O=C1CC(N2CCOCC2)C(=O)N1c1cc(Cl)cc(Cl)c1 (centres undefined)	2	0.73	-0.1	1.3	x	4	-1.7
CC1(c2ccccc2)NC(=O)N(CC(=O)N(CC(=O)Nc2ccccc2C(F)(F)F)Cc2ccco2)C1=O (centres undefined)	-2	0.71	2.5	1.8	i	x	x
Nc1n[nH]c(-c2ccccc2)n1	2	0.7	0.6	4.5	x	x	-5.2
Cc1c(Nc2cc(N3CCCCCC3)c3nonc3c2[N+](=O)[O-])c(=O)n(-c2ccccc2)n1C	-11	0.79	4.0	18	x	2	3.2
Cc1ccc(/C=[N+](\[O-])c2ccc(N(C)C)cc2)c2nsnc12	-5	0.64	7.3	3.5	i	x	x
COc1ccc(-c2csc(N=C(N)N)n2)cc1	1	0.63	-0.7	3.5	i	98*	x
O=C1CS/C(=N/N=C/c2cccs2)N1Cc1ccc(F)cc1	2	x	1.0	x	i	-9	4.1
O=C(c1cnn2c(C(F)(F)F)cc(-c3ccco3)nc12)N1CCCc2ccccc21	-16	0.75	0.3	2.1	x	x	-1.3
Cc1cc(C)cc(SCc2noc(C(=O)NCC3CC3)c2C(=O)NCC2CC2)c1	x	0.65	x	-2.2	i	-2	1.4
O=C1Nc2ccc3sc4ccccc4c3c2C1=O	-3	0.68	1.9	6.2	i	-13	-2.2
CC(=O)c1cccc(NC(=O)CN2C=NS(=O)(=O)c3ccc(C)cc32)c1	-7	0.71	-0.9	2.0	i	-7	3.4
COc1ccc(C(=O)N2CCN(Cc3ccccc3C)CC2)cc1OC	6	0.74	-3.5	2.4	x	-17	5.7
Cc1ccc(NCC(=O)N/N=C/c2cccc(Br)c2)cc1	0	x	2.1	x	i	-20	-5.3
Cc1cccc(C)c1NC(=O)CSc1nc(C2CC2)nc2ccccc12	4	0.72	-4.1	0.8	i	-8	-6.9
O=C(Nc1cccc(Cl)c1)C1=CC=CN2CCS(=O)(=O)N=C12	-14	0.66	-3.6	4.6	i	x	-5.9

# Screens (PubChem)
